KCNQ2 inh: KCNQ2 potassium channel inhibitors, primary screen, cell-based, CHO-K1, FluxOR thallium flux, B-score (AID 2156). 20 min; stronger effect = lower value; only compounds with negative scores are shown here; some inactives read as strong as hits. B-score at 10 µM. Potassium voltage-gated channel subfamily KQT member 2 (Rattus norvegicus), O88943. 310,000 compounds, 1.1% hits;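 active means fluorescence ratio B-score at most minus 3 library SDs, with starting brightness B-score within 2 library SDs, cut at about -5.5 in these data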
Target sequence (O88943 whole entry, looked up): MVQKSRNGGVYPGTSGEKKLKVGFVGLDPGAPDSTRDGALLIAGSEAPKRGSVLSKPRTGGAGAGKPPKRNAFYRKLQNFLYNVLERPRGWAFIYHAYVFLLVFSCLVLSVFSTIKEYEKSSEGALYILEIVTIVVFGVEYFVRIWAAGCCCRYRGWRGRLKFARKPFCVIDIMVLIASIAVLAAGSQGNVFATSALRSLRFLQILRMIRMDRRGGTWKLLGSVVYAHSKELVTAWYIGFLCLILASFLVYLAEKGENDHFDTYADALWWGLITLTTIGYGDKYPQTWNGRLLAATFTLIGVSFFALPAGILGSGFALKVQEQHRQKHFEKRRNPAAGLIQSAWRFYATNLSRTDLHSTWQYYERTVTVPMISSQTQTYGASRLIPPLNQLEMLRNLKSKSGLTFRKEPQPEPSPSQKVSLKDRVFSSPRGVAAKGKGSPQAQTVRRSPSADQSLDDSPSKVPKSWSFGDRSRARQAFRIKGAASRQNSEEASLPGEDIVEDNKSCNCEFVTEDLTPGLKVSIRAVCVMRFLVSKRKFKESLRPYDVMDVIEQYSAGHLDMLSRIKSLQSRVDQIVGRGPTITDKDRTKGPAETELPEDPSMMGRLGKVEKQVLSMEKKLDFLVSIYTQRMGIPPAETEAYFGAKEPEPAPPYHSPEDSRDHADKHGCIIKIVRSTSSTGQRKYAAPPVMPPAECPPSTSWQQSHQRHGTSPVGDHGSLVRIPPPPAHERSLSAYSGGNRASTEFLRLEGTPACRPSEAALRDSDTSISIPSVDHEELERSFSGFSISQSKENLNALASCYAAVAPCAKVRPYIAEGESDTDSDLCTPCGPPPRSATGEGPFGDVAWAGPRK
KCNQ2 inh baseline: recorded beside KCNQ2 inh, whose call it bears; B-score; measured here: initial fluorescence intensity artifact check;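 brightness before thallium and not channel activity; 0 = typical well and far values either way flag optical interference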
Numbers without * were called inactive; i = inactive. The list is partial; rates above refer to the full screens.

mol	KCNQ2 inh	KCNQ2 inh baseline
COc1ccc(Cl)cc1NC(=O)C(=O)NC1CCCCCC1	i	1.5
CCOc1cc(S(=O)(=O)n2ccnc2)ccc1Cl	i	0.94
Cc1c(C(=O)Cc2ccccc2)n(C)c2ccccc12	i	0.34
COc1ccc(-n2ccnc(SCC(=O)NCc3ccccc3Cl)c2=O)cc1	i	-0.94
CC(C)n1cc(-c2ccc(Cl)cc2)cc(C#N)c1=O	i	0.97
O=C(Nc1ccc(Nc2ccncc2)cc1)c1ccc([N+](=O)[O-])cc1	i	0.49
CC(C)Cc1nnc(NC(=O)CN2C(=O)NC3(CC(C)CC(C)(C)C3)C2=O)s1 (configuration not stated)	i	-0.06
NS(=O)(=O)c1ccc(CNC(=S)Nc2ccc(Cl)c(Cl)c2)cc1	i	0.44
O=Cc1ccc(OCc2ccc3ccccc3c2)cc1	i	-1.35
CC(C(c1ccc2c(c1)OCO2)c1c(N)n(C)c(=O)n(C)c1=O)[N+](=O)[O-] (configuration not stated)	i	-0.6
Cc1coc2cc3oc(=O)c(CCC(=O)N[C@@H](CCCNC(N)=O)C(=O)O)c(C)c3cc12	i	-1.03
CCOC(=O)/C(C#N)=C\c1ccc(OC)c(OC)c1	i	-0.05
CC(=O)NC(CC(=O)NCCOc1ccccc1F)c1ccccc1 (configuration not stated)	i	-0.72
CC(=O)NC1=NN(C(C)=O)C(c2ccco2)S1 (configuration not stated)	i	0.35
O=C(c1cc([N+](=O)[O-])[nH]n1)N1CCSCC1	i	2.48
Cc1ccc2nc(SCc3ccc([N+](=O)[O-])cc3)nc(C)c2c1	i	0.67
Cc1ccc(N(C)S(=O)(=O)c2c(C)[nH]c(C)c2C(=O)N2CCCC2)cc1	i	0.01
COC(=O)c1cc(NC(=O)CC2NC3CCCCC3NC2=O)cc(C(=O)OC)c1 (configuration not stated)	i	-0.02
CC1(C)CC2CC(C)(CN2C(=O)C23CCC(C)(C(=O)C2)C3(C)C)C1 (configuration not stated)	i	-1.42
Cc1nn(C)c(C)c1S(=O)(=O)N(CC(=O)NCCCOC(C)C)c1ccc(C(C)C)cc1	i	0.83

More results
mol	KCNQ2 inh	KCNQ2 inh baseline
Cc1cccn2c(CN(C)C3CCCc4ccccc43)c(C(=O)N3CCOCC3)nc12 (configuration not stated)	i	-1.97
CCC(C)NC(=O)CSc1nc2c(sc(=S)n2Cc2ccco2)c(=O)n1-c1ccccc1 (configuration not stated)	i	-0.18
COCCn1c(C)cc(C(=O)CN2CCCCC2)c1C	i	-0.01
CCOC(=O)C1=C(CNCc2ccc(C)cc2)NC(=O)NC1c1cc(C)ccc1C (configuration not stated)	i	0.12
CC(C)(C)c1ccc(C(=O)c2c[nH]c(C(=O)NCc3cccs3)c2)cc1	i	-1.79
O=C(NNC1=NC2(CCCC2)Cc2ccccc21)c1cccnc1	i	-1.4
CC(C)N(Cc1nc(-c2ccc(Cl)cc2)no1)C(=O)c1cccs1	i	-0.32
CC(C)(C)c1ccc(-c2nnc(SCC(=O)Nc3sc4c(c3C#N)CCCC4)o2)cc1	i	-0.02
O=C(C(Cc1ccccc1)n1cccc1)N1CCN(c2cccc(Cl)c2)CC1 (configuration not stated)	-5.78*	-0.59*
CCCCN1C(=O)CC(N2CCOCC2)C1=O (configuration not stated)	i	1.62
C=CCn1c(COc2ccc(F)cc2)nnc1SCC(=O)NC(=O)NCc1ccco1	i	1.21
C[C@@]12CC(=O)NC1N(C(=O)c1cccc(C(F)(F)F)c1)C(c1ccccc1O)C2 (some centres not stated)	i	-0.29
N#Cc1c(NC(=O)CSc2nnnn2C2CCCCC2)sc2c1CCCC2	i	-0.61
C/C(Cn1nnc([N+](=O)[O-])n1)=N\NC(=O)c1ccccc1Cl	i	0.95
CC(=O)Nc1ccc(OCC(O)Cn2nc(C)c(C)c2C)cc1 (configuration not stated)	i	0.64
CC1(C(=O)N/N=C/c2ccccc2)CC1(Br)Br (configuration not stated)	i	0.03
O=C1CCCc2nc(NCc3ccco3)ncc21	i	-0.36
CCOc1ncccc1C(=O)Nc1ccc(S(=O)(=O)N2CCCC2)cc1	i	2.38
O=C(Cn1ccc2ccccc2c1=O)NCC(=O)Nc1ccc(F)cc1F	i	0.36
Cc1sc(NC(=O)C2CSC3(C)CCC(=O)N23)nc1-c1ccc(F)cc1 (configuration not stated)	i	-0.88

Next results
mol	KCNQ2 inh	KCNQ2 inh baseline
Cc1ccc(CNC(=O)c2cc3c(-c4ccc(Cl)cc4)nn(C)c3s2)o1	i	-0.07
O=C(Nc1cccc(-c2cn3ccsc3n2)c1)c1ccccc1	i	0.88
CC(C)[C@@H](C(=O)OCC(=O)Nc1ccc2c(c1)OCO2)N1C(=O)c2ccccc2C1=O	i	-0.41
Cc1nc(-c2ccc(F)cc2)c(CC(=O)N(C)CC(=O)Nc2ccccc2C(F)(F)F)s1	i	0.69
O=C(NC12CC3CC(CC(C3)C1)C2)c1cccc(OC(F)F)c1	i	-1.27
CCn1c(=O)c(C(C)=O)nc2ccccc21	i	0.61
CN(Cc1cccs1)c1nc(-c2cccnc2)nc2ccccc12	i	2.17
COc1cc(/C=N/NC(N)=S)ccc1OCC(=O)Nc1ccc(C)cc1	i	-0.04
COc1ccc(CC(=O)OCC(=O)NCCc2ccccc2)cc1OC	i	1.17
O=c1c2ccccc2nc(/C=C/c2cccnc2)n1CCc1ccccc1	i	1.39
CCN(c1ccccc1)S(=O)(=O)c1ccc(Cl)c(C(=O)NCCc2ccc(OC)cc2)c1	i	-0.35
O=S(=O)(c1cccs1)N1CCCc2ccccc21	i	-2.37
C#CCN(Cc1ccco1)C(=O)c1ccc(OC2CCN(Cc3ccccn3)CC2)cc1	i	-1.94
COc1ccc(-n2cc(-c3ccc(Br)cc3)[nH]c2=S)cc1	i	-1.78
COc1ccccc1CNC(=O)CSCc1cnn(-c2ccccc2)c1-n1cccc1	i	-0.05
COc1ccc(NC(=O)C(=O)N2N=C(C(C)C)CC2(O)C(F)(F)F)cc1 (configuration not stated)	i	0.41
CCC(=O)c1cc2c(cc1NC(=O)c1cccs1)OCCO2	i	0.37
Cc1nc2nc(N)nn2c(C)c1C/C=C/c1ccccc1	i	-0.44
COc1ccccc1Cc1noc(COc2cccc(C)c2C)n1	i	0.03
COC(=O)c1ccc(CSc2nc3c(c(=O)n2-c2ccc(Br)cc2)SCC3)o1	i	0.96

Two entries from above, with each value named:
Cc1cccn2c(CN(C)C3CCCc4ccccc43)c(C(=O)N3CCOCC3)nc12 (configuration not stated)
  KCNQ2 inh = i
  KCNQ2 inh baseline = -1.97
CC(C)Cc1nnc(NC(=O)CN2C(=O)NC3(CC(C)CC(C)(C)C3)C2=O)s1 (configuration not stated)
  KCNQ2 inh = i
  KCNQ2 inh baseline = -0.06

Structures shown so far containing a furan ring, fused or not (8):
mol	KCNQ2 inh	KCNQ2 inh baseline
Cc1coc2cc3oc(=O)c(CCC(=O)N[C@@H](CCCNC(N)=O)C(=O)O)c(C)c3cc12	i	-1.03
CC(=O)NC1=NN(C(C)=O)C(c2ccco2)S1 (configuration not stated)	i	0.35
CCC(C)NC(=O)CSc1nc2c(sc(=S)n2Cc2ccco2)c(=O)n1-c1ccccc1 (configuration not stated)	i	-0.18
C=CCn1c(COc2ccc(F)cc2)nnc1SCC(=O)NC(=O)NCc1ccco1	i	1.21
O=C1CCCc2nc(NCc3ccco3)ncc21	i	-0.36
Cc1ccc(CNC(=O)c2cc3c(-c4ccc(Cl)cc4)nn(C)c3s2)o1	i	-0.07
C#CCN(Cc1ccco1)C(=O)c1ccc(OC2CCN(Cc3ccccn3)CC2)cc1	i	-1.94
COC(=O)c1ccc(CSc2nc3c(c(=O)n2-c2ccc(Br)cc2)SCC3)o1	i	0.96

Going on with the list.
The line under a structure holds: KCNQ2 inh	KCNQ2 inh baseline
CC(C)(C)c1cc[n+](/C(C(=S)Nc2ccccc2F)=C(/[O-])c2ccc3c(c2)OCCO3)cc1
  i	1.04
COc1ccccc1OCC(=O)Nc1ccc(S(=O)(=O)N(C)c2ccccc2)cc1
  i	0.58
CC(=O)c1ccc(NC(=O)CN2C(=O)COc3ccc(Cl)cc32)cc1
  i	0.85
S=C(NC1CCCCC1)N(CCc1nc2ccccc2[nH]1)C1CCCC1
  i	-1.31
COc1ccccc1CC(Cc1nc2ccccc2[nH]1)c1nc2ccccc2[nH]1 (configuration not stated)
  i	-0.28
Cn1cc(/C=N\NC(=O)C2COc3ccccc3O2)c2ccccc21 (configuration not stated)
  i	-0.26
O=C(Cc1ccccc1)N/N=C/c1cc(Br)c(Br)o1
  i	-0.94
CC1CC1C(=O)Nc1nc2ccc(S(C)(=O)=O)cc2s1 (configuration not stated)
  i	-0.33
CSCC[C@H](NC(=O)N1CCn2c1nc1ccccc12)C(=O)N[C@@H](C(=O)O)c1ccccc1
  i	0.69
CC1(c2ccccc2)CC(C)(C)n2c(O)c(C3=NC(=S)NC3=O)c3cccc1c32 (configuration not stated)
  i	-0.06
N/C(=N\OC(=O)CSc1ccccc1)c1cccc([N+](=O)[O-])c1
  i	-1.45
O=C(/C=C/c1ccc([N+](=O)[O-])o1)NNC(=O)c1ccc(F)cc1
  i	1.1
CCN1CCN(c2ncnc3c2c(-c2ccccc2)cn3-c2ccc(F)cc2)CC1
  i	-0.07
O=C(COc1ccc2ccccc2c1)Nc1cccc2c1C(=O)NC2=O
  i	2.64
COCc1[nH]nc2c1C(c1ccsc1)C(C#N)=C(N)O2 (configuration not stated)
  i	-1.53
Oc1ccc(Br)cc1CNn1cnnc1
  i	-0.22
Nc1cc(=O)[nH]c(SC/C=C/c2ccccc2)n1
  i	-0.98
COc1ccc(Nc2ncc(C(=O)O)c3ccccc23)cc1
  i	3.59
O=C(CCCCCCN1C(=O)c2ccccc2C1=O)N1CCC(c2ccccc2)C1 (configuration not stated)
  i	-0.17
COc1ccc(C2(CNC(=O)c3ccc(OCC(C)C)cc3)CCOCC2)cc1
  i	-1.29

Additional records
The line under a structure holds: KCNQ2 inh	KCNQ2 inh baseline
Cc1c(NC(=O)Nc2ccc(Cl)cc2)c(=O)n(-c2ccccc2)n1C
  i	-1.64
CCOc1ccc(-c2n[nH]c(C)c2Oc2ccc(OC)cc2)c(O)c1
  i	-0.03
Cc1ccc(C)c(NC(=O)Cn2nc(C(F)(F)F)cc2C2CC2)c1
  i	0.01
COc1ccc(Cn2c(=S)[nH]c3cc(OC)c(OC)cc3c2=O)cc1
  i	-0.67
COc1ccc(CCC(=O)OCC(=O)Nc2ccccc2)cc1
  i	-0.25
COc1cc2c(cc1OC)C(C)N(S(=O)(=O)c1cn(C)c(C)n1)CC2 (configuration not stated)
  i	-0.68
O=C(CCC(=O)N1CCCC1)Nc1ccc(Cl)c(Cl)c1
  i	-0.93
Cc1ccc([N+](=O)[O-])cc1N/C=C/C(=O)c1ccco1
  i	-1.43
Cc1ccc(N(C(=O)CCC(=O)Nc2cc(C)on2)C(C(=O)NC2CCCC2)c2cccs2)cc1 (configuration not stated)
  i	0.11
CN(C)c1ccc(C(CNC(=O)c2ccc(F)cc2)c2c[nH]c3ccccc23)cc1 (configuration not stated)
  i	-1.95
CCOc1ccc(NC(=O)CC2C(=O)N(c3ccc(OC)cc3)C(=O)N2CCc2cccs2)cc1 (configuration not stated)
  i	3.62
O=C(/C=C/c1ccc(Br)cc1)c1ccco1
  i	-0.22
Cc1ccc(-c2onc(C)c2C)cc1S(=O)(=O)N1CC(C)Oc2ccccc21 (configuration not stated)
  i	-0.67
Cc1ccc(NC(=O)O/N=C/c2ccc(N(C)C)cc2)cc1
  i	1.04
O=C(O)CNS(=O)(=O)c1ccc2c(c1)C(=O)c1cc(S(=O)(=O)NCC(=O)O)ccc1-2
  i	0.81
Cc1ccc(S(=O)(=O)c2c(C)nn(C(C)(C)C)c2OC(=O)c2ccco2)cc1
  i	-0.43
CC1(C)OC(c2ccccc2)=C/C(=C/C=Nc2ccccc2)O1
  i	-1.29
COc1cc(C(c2sc3nc(C)nn3c2O)N2CCc3ccccc3C2)cc(OC)c1OC (configuration not stated)
  i	0.45
O=C(c1c(F)c(F)c(F)c(F)c1F)N(Cc1ccccc1)Cc1ccccc1
  i	0.34
COc1cc2ccccc2cc1C(=O)N(CCN(C)C)c1nc2c(F)cc(F)cc2s1
  i	2.09

(next part)
The line under a structure holds: KCNQ2 inh	KCNQ2 inh baseline
COc1ccc(NC(=O)c2cc(S(=O)(=O)N3CCCC3)ccc2OC)cc1
  i	0.96
CC(C)Cc1nnc(NC(=O)CCC(=O)N2CCN(Cc3ccccc3)CC2)s1
  i	0.07
COc1ccc(C2C(C(C)=O)=C(C)Nc3ncnn32)cc1 (configuration not stated)
  i	-0.02
CCN(c1cccc(C)c1)S(=O)(=O)c1ccc(-c2coc(C)n2)cc1
  i	0.03
CCc1cc(/C(Cc2cscn2)=N\O)c(O)cc1O
  i	1.66
Nc1c(C(=O)Nc2ccc3c(c2)OCCO3)nnn1Cc1ccccc1
  i	-1.19
COc1ccc(S(=O)(=O)N2CCN(C)CC2)c(C)c1
  i	-0.88
O=C(NNc1nc2ccccc2s1)Nc1ccc(F)cc1
  i	-0.74
NC(=O)C1CCN(C2=C(Cl)C(=O)c3ccccc3C2=O)CC1
  -12.2*	-8.98*
Cc1ccccc1C(=O)NCc1nnc(SCC(=O)N2CCN(c3ccccc3)CC2)n1C
  i	3.48
Cc1ccc(S(=O)(=O)N2CCCC2C(=O)NCCc2ccccc2)cc1 (configuration not stated)
  i	0.41
C/C(CCN1CCc2nc(-c3ccccc3)c(-c3ccccc3)cc2C1)=N\O[C@H](C)c1cn([C@H](CO)Cc2ccccc2)nn1
  i	-0.16
O=C(COC(=O)c1ccc(Br)c(S(=O)(=O)N2CCOCC2)c1)NCC1CCCO1 (configuration not stated)
  i	0.36

Compound activity from PubChem.
